# Compound activity (PubChem BioAssay)
# GALR2 agonist: GALR2 receptor agonists, primary screen, cell-based | Galanin receptor type 2 (Homo sapiens), O43603 | GALR2-expressing cells, agonist activation read-out | activation, %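 (tested at 5 µM)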 | hit rate 0.48% among 140,000 | AID 803, 2007;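 active = above mean plus 3 SD of all compounds, about 5% in these data, not always enough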;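 also: 0% = vehicle buffer wells and 100% = reference agonist at full effect; tested in CHO reporter cells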
# PKD1 kinase inh: inhibitors of human PKD1 kinase, biochemical, fluorescence polarization; hit rate 0.056% among 200,000; Serine/threonine-protein kinase D1 (Homo sapiens), Q15139; inhibition, %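 (about 10 µM by stock and volumes)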; PKD1 kinase fluorescence polarization assay; AID 797, 2007;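 active = inhibition of 50% or more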;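 also: controls were vehicle for no effect and a reference inhibitor for full effect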
# Target sequence (Q15139 whole entry, looked up): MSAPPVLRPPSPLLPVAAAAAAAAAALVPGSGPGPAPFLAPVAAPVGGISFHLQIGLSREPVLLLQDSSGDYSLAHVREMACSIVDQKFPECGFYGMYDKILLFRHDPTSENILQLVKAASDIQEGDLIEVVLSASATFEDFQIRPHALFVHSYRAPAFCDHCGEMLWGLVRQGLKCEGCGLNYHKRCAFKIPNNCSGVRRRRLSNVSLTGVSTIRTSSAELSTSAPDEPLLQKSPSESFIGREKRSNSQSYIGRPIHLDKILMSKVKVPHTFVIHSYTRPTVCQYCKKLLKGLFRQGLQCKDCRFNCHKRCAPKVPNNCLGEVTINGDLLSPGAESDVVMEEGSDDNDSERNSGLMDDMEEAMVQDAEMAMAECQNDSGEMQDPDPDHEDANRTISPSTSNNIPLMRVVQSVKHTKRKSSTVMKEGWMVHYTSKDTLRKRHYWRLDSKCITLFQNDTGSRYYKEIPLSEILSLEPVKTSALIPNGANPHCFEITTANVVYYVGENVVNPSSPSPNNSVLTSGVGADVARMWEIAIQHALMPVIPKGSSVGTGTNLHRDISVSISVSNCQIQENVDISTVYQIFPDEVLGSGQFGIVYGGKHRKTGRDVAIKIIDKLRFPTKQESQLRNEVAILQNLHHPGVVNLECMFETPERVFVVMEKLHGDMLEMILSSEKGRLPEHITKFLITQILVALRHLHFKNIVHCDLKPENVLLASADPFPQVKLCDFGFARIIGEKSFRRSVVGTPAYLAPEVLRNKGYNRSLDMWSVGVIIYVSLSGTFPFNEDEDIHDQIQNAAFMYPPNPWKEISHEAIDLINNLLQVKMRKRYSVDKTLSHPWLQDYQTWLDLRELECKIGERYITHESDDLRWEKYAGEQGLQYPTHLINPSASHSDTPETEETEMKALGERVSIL
# HSV replic up: enhancers of HSV replication in host cells, fold increase, host cell viability | HSV replication augmentation in cells | maximum fold increase | hit rate 0.005% among 220,000;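 active = peak rise of 1.5-fold or more in the series; tested in PC3 cells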;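 also: first round at 10 µM; read as green reporter fluorescence; hits show the peak of a series up to 25 µM; 1 = signal of infected wells without compound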
# Insulin prom inh: inhibitors of insulin promoter-driven GFP, primary screen, imaging, TRM-6 cells (human fetal islet line), eGFP reporter, cell count. AID 1273, 2008. hit rate 0.9% among 130,000. inhibition, % at 2 µM. reporter expression induced with tamoxifen;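 active = inhibition above the mean plus 3 SD, with well images judged a real hit on visual review, cut at about 60% in these data, passing the limit was not always enough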
# RGS16-Gao: modulators of RGS16 binding to Galphao, primary screen, biochemical, human proteins, multiplexed bead flow cytometry; Regulator of G-protein signaling 16 (Homo sapiens) + Guanine nucleotide-binding protein …; bead-based flow cytometry RGS16-Galphao binding, fluorescence; actives lie on both sides; binding response (% of control), % at 10 µM; hit rate 0.38% among 220,000; AID 1441, 2008;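 active = below 25% or above 175%, edge rows of some plates excepted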;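 also: Galphao activated by GDP with aluminum fluoride before binding; 100% = wells without compound and 0% = beads without RGS; some results beyond the cut were filed as inactive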
# Insulin prom inh cell count: recorded beside Insulin prom inh, whose call it bears; normalized cell count, %; measured here: cell count, toxicity; reference of the scale not given here;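 cells exposed to compound for 48 h; stained nuclei by imaging scaled within each plate; lower means fewer cells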
# HSV replic up primary fold: second read-out of HSV replic up, no call of its own (marks repeat the call); fold increase; compound at 10 µM; measured here: primary screen fold increase 10 uM; tested in PC3 cells;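 GFP signal in the first replicate; 1 = infected wells without compound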
# * = called active by the depositor; i = inactive; · = not tested or not shown.
SMILES,GALR2 agonist,PKD1 kinase inh,HSV replic up,HSV replic up primary fold,Insulin prom inh,Insulin prom inh cell count,RGS16-Gao
O=C(COC(=O)C12CC3CC(CC(O)(C3)C1)C2)NC(=O)NCc1ccco1,-1.0,1,i,0.89,43,99,95
COc1ccc(C(=O)O/N=C(\C)c2nccs2)cc1,·,-3,i,0.95,·,·,102
CCOC(=O)c1sc(=NC(=O)c2ccc(S(=O)(=O)N(C)c3ccccc3)cc2)n(C)c1C,·,-9,i,0.85,38,124,99
COc1ccc(Nc2ncc(C(=O)N3CCC(C(N)=O)CC3)c3ccccc23)cc1,-0.7,-6,i,0.65,18,69,97
Cn1cccc1CC(=O)NNC(=S)Nc1ccc(F)cc1,0.0,-4,i,1,24,116,100
COCCN(C(=S)Nc1cccc(OC)c1)C1CCN(C(C)=O)CC1,-1.0,-5,i,1,3,143,105
Cc1ccc(NC(=S)NN(C)c2cc(C)nc(C)n2)cc1,0.9,6,i,0.85,30,105,106
COc1ccc(C2C3C(=O)N(N(C)c4ncc(C(F)(F)F)cc4Cl)C(=O)C3ON2C)cc1 (stereo unspecified),·,4,i,0.97,-45,63,138
CCOC(=O)NC(=O)CSc1nnc(C2CC2)n1Cc1ccco1,·,4,i,1.2,33,118,113
N=c1c2c3c(sc2ncn1Nc1ccccc1)CCC3,·,·,i,0.96,·,·,101
O=C(CSc1ncccc1-c1nc2ccccc2[nH]1)NC1CC1,-0.6,-7,i,0.99,43,84,92
Cc1ccc(C2=[N+]([O-])C3(CCCCC/C3=N\O)N(O)C2(C)C)o1 (stereo unspecified),-2.2,-2,i,0.91,-70,129,115
CC(=O)Oc1cccc(N2C(=O)c3ccccc3C2=O)c1,-0.6,-6,i,1.1,27,72,123
O=C1CC(c2ccccc2Cl)C2=C(COC2=O)N1 (stereo unspecified),-0.7,1,i,1.1,24,61,91
COc1cc(C)c(Br)cc1S(=O)(=O)NCCN1CCOCC1,·,-9,i,1.1,21,112,107

# Part of the list above, showing only HSV replic up.
Molecule | HSV replic up
Cc1ccc(NC(=S)NN(C)c2cc(C)nc(C)n2)cc1 | i
O=C(CSc1ncccc1-c1nc2ccccc2[nH]1)NC1CC1 | i

# Next section.
SMILES,GALR2 agonist,PKD1 kinase inh,HSV replic up,HSV replic up primary fold,Insulin prom inh,Insulin prom inh cell count,RGS16-Gao
O=C(NC1CCCC1)C1C2C=CC3(CN(Cc4cccs4)C(=O)C13)O2 (stereo unspecified),0.4,0,·,·,25,130,99
CN(c1nc(-c2ccc(Br)cc2)cs1)C1CCS(=O)(=O)C1 (stereo unspecified),·,-8,i,0.97,-73,61,103
COc1cccc(CC2(CO)CCCN(Cc3cn[nH]c3-c3ccccc3)C2)c1 (stereo unspecified),·,8,i,0.96,·,·,102
CC(C(=O)NCc1ccccc1)N1C(=O)CN(C)C(=O)c2ccccc21 (stereo unspecified),-1.3,1,i,1,·,·,102
Cn1ccnc1SCC(=O)Nc1cccc2ccccc12,-1.0,-2,i,0.83,-8,116,131
O=C(C1CCC(=O)N1Cc1ccccc1Cl)N1CCN(c2cccc(Cl)c2)CC1 (stereo unspecified),-0.7,-7,i,0.95,·,·,99
COc1ccc(CCN2C(=O)NC(NC(=O)C(C)(C)C)(C(F)(F)F)C2=O)cc1OC (stereo unspecified),-0.9,-1,i,0.99,7,124,63
O=C(NCc1ccco1)c1ccccc1NS(=O)(=O)c1ccc(Br)s1,-1.4,-5,i,0.89,18,73,98
O=c1c2ccccc2ncn1CCCCOc1ccc(Br)cc1,·,-2,i,0.98,·,·,102
Cc1ccc(NS(=O)(=O)c2ccc(NC(=O)CSc3ccc(Cl)cc3)cc2)c(C)c1,-0.9,17,i,1.1,-81,91,100
O=C(O)c1ccccc1CSc1nnc2c(n1)[nH]c1ccccc12,·,·,i,1.3,·,·,103
Nc1nc(-c2ccccc2Br)cs1,-0.2,-3,i,1,-19,30,100
CCN1CCN(C(=O)Cn2c(=O)sc3ccccc32)CC1,·,-12,i,1.1,·,·,106
COc1ccccc1CNC(=O)c1cn(C)c2ccc(S(=O)(=O)N3CCCC3)cc2c1=O,·,-2,i,0.75,·,·,99
COc1ccc(Nc2nc(C)nc3sc4c(c23)CCC4)cc1O,·,-7,i,0.73,18,50,114
Cc1[nH]nc2c1C(=O)CCC2,0.3,-9,i,0.91,-14,91,94
CC(=O)c1cccc(NC(=O)c2ccoc2C)c1,·,8,i,1.1,·,·,109
C/C(=C\C(=O)C(F)(F)F)Nc1ccc(C)cc1,-0.8,10,i,0.98,-21,82,598
COC(=O)C1=C(C(=O)OC)C2(OC1c1ccccc1C)C(=O)c1ccccc1C2=O (stereo unspecified),-3.0,-8,i,1.1,42,84,102
COc1ccc(/C=N/NC(=O)CSc2nnc(CCCc3ccc(OC)c(C)c3)o2)cc1,-2.5,-7,i,0.95,34,50,104
O=C(CSc1n[nH]c(=O)[nH]c1=O)Nc1cccc(S(=O)(=O)N2CCOCC2)c1,·,5,i,1,·,·,102
COC(=O)CCc1c(C)[nH]c(C(=O)OCc2ccccc2)c1C,-1.8,-7,i,0.89,·,·,94
COc1ccc(-c2nc(=S)n3ccsc3n2)cc1OC,·,7,i,1.2,-6,78,100
COc1ccc(O)c(C(=O)c2cc(C#N)c(=O)n(-c3c(C)n(C)n(-c4ccccc4)c3=O)c2)c1,-1.7,2,i,1.3,-32,111,104
O=C(Nc1ccc(F)cc1F)N1CCC(c2nc3ccccc3o2)CC1,·,2,i,1.1,·,·,98
c1ccc(-c2nc(-c3ccco3)n3ccccc23)cc1,-1.7,-10,i,1.1,0,154,-2.4*
Cc1ccc(C)c(N2CCN(c3ccc(N4C(=O)COCC4=O)cc3[N+](=O)[O-])CC2)c1,-1.3,-7,i,0.97,-20,138,100
COc1ccccc1CNCC(=O)Nc1cc(S(=O)(=O)N2CCCCCC2)ccc1Cl,·,·,i,1.2,·,·,99
CC(C)(C)C(=O)NCCCc1nc2ccccc2n1CCCOc1ccc(Cl)cc1,-0.9,-14,i,0.74,10,96,100
COc1cc(Cl)c(C)cc1NC(=O)CSc1cc(Cl)ccc1Cl,1.1,3,i,0.96,·,·,101

# 3 of the entries above in order of their number in HSV replic up primary fold, falling.
compound | HSV replic up primary fold
c1ccc(-c2nc(-c3ccco3)n3ccccc23)cc1 | 1.1
N=c1c2c3c(sc2ncn1Nc1ccccc1)CCC3 | 0.96
Cc1[nH]nc2c1C(=O)CCC2 | 0.91

# (next part)
SMILES,GALR2 agonist,PKD1 kinase inh,HSV replic up,HSV replic up primary fold,Insulin prom inh,Insulin prom inh cell count,RGS16-Gao
CCOc1ccc(CCNC(=O)C(CCC(N)=O)NC(=O)OCc2ccccc2)cc1OCC (stereo unspecified),·,6,i,1,-229,68,98
COc1ccc(NC(=O)C2CCCN(S(=O)(=O)c3ccc4c(c3)oc(=O)n4C)C2)cc1OC (stereo unspecified),-1.0,8,i,0.98,·,·,103
OC(COc1c(F)cc(Br)cc1F)CN1CCN(c2ccc(F)cc2)CC1 (stereo unspecified),-1.9,1,·,·,10,92,102
C=CCn1cc(C(=O)NCCOC)c(=O)c2cc(S(=O)(=O)N(CC)CC)ccc21,-1.5,-6,i,0.77,-45,107,100
CCN1CCN(c2nc(-c3ccncc3)nc3ccccc23)CC1,-0.2,-5,·,·,-18,190,103
Cc1occc1C(=O)N/N=C/c1ccc(N(C)C)cc1,·,·,i,0.97,·,·,96
O=C(Nc1ccc(F)cc1)N1CCN(c2ccc(F)cc2)CC1,·,-3,i,1,·,·,93
CCn1c(-c2cc(-c3ccc(C)c(C)c3)nc3ccccc23)n[nH]c1=S,·,-1,i,0.91,20,75,68
CCN(CC)CC#Cc1ccc(C)cc1,·,·,i,0.9,·,·,99
COc1ccccc1CNC(=O)COC(=O)Cc1cccs1,·,-4,i,0.88,·,·,101
CCN1/C(=C/c2ccc3cc(C)ccc3[n+]2C)Sc2ccc3sccc3c21,·,-3,·,·,-376,16,102
CC(Cc1ccsc1)NC(=O)CCc1nnc(COc2ccccc2)o1 (stereo unspecified),·,9,i,0.88,·,·,110
COc1ccc(-c2cc(C(=O)OCC(=O)c3c(N)n(C)c(=O)n(C)c3=O)c3ccccc3n2)cc1,·,5,i,0.9,-58,86,102
O=C(CN1CCN(C2CCCCC2)CC1)Nc1ccccc1-c1ccccc1,-3.1,1,·,·,·,·,99
CC(=O)c1ccc(NC(=O)CCn2c(=O)oc3ccccc32)cc1,-1.7,-9,i,0.93,·,·,101
COc1cc(CCN2C(=O)N[C@@H](c3cccc(C(F)(F)F)c3)C(C(C)=O)=C2C)cc(OC)c1OC,-2.7,-7,·,·,-55,76,49
CCCc1cc(=O)[nH]c(SCC(=O)NCCCC(=O)OCC)n1,0.1,-8,i,1,-11,50,101
COc1ccc2nc(SCC(=O)C(C)(C)C)[nH]c2c1,·,·,i,1.2,·,·,97
CCN1CCN(c2ccc([N+](=O)[O-])c(Sc3nc4ccccc4[nH]3)c2)CC1,0.1,2,i,0.95,·,·,244
CN(Cc1ccccc1)c1ncnc2c1cnn2-c1ccccc1,0.9,-5,i,1.2,-9,135,100
Cc1ccnc(SCC(=O)Nc2c(C)n(C)n(-c3ccccc3)c2=O)n1,-0.5,-2,i,0.98,-19,95,114
CCOC(=O)c1[nH]c2ccc(OC)cc2c1NC(=O)c1cccc(OC)c1,-1.8,-2,i,0.75,-2,106,102
NNC(=O)COc1ccc(C(F)(F)F)cc1,·,-7,i,1.1,·,·,90
Clc1ccc(OCCSc2nnnn2C2CCCCC2)cc1,-1.4,-2,i,0.91,50,57,99
CC(=O)C1=C(O)C(=O)N(CC#N)C1c1cccs1 (stereo unspecified),-1.3,-11,i,0.97,-9,11,106
Cn1c(SCC(=O)c2ccccc2)nnc1-c1cccnc1,0.1,2,i,0.72,-5,70,115
Cn1c(=O)c2c(ncn2CC(=O)N2CCCCCC2)n(C)c1=O,·,·,i,0.84,·,·,107
CC(=NCc1ccco1)C1=C(O)c2ccccc2C1=O,-1.3,-11,·,·,-9,110,81
O=c1[nH]c2ccccc2cc1CN(c1ccccc1)S(=O)(=O)c1ccccc1,-0.5,-7,i,0.82,32,71,99
CCOc1ccc(CNC(=O)CCS(=O)(=O)Cc2ccc(C)cc2)cc1OC,·,-5,i,1.1,7,129,101

# Copied from the list:
# COc1ccc2nc(SCC(=O)C(C)(C)C)[nH]c2c1 – HSV replic up primary fold: 1.2
# CCCc1cc(=O)[nH]c(SCC(=O)NCCCC(=O)OCC)n1 – Insulin prom inh cell count: 50
# CC(=NCc1ccco1)C1=C(O)c2ccccc2C1=O – PKD1 kinase inh: -11
# Clc1ccc(OCCSc2nnnn2C2CCCCC2)cc1 – HSV replic up primary fold: 0.91
# CCOC(=O)c1[nH]c2ccc(OC)cc2c1NC(=O)c1cccc(OC)c1 – PKD1 kinase inh: -2
# O=c1[nH]c2ccccc2cc1CN(c1ccccc1)S(=O)(=O)c1ccccc1 – Insulin prom inh cell count: 71
# CN(Cc1ccccc1)c1ncnc2c1cnn2-c1ccccc1 – Insulin prom inh cell count: 135

# Continuation.
SMILES,GALR2 agonist,PKD1 kinase inh,HSV replic up,HSV replic up primary fold,Insulin prom inh,Insulin prom inh cell count,RGS16-Gao
CNc1cccccc1=S,-0.9,8,i,0.82,-3,113,53
Cc1cc(C)c(C(=O)CSc2nnc(-c3cccnc3)n2C)c(C)c1,0.4,6,i,0.75,26,90,111
COc1cccc(/C=C/C(=O)OCC(=O)NCCc2ccccc2)c1,·,-4,i,0.89,·,·,103
C/C(=N\NC(=O)Cc1ccc(F)cc1)c1ccc(O)cc1,·,-5,·,·,-14,116,103
CCN(CC)S(=O)(=O)c1cc(NC(=O)COC(=O)CCc2nc3ccccc3s2)ccc1C,-1.5,1,i,1,-39,80,100
O=c1c(Cc2ccccc2)c(O)ccn1Cc1ccco1,·,6,i,0.87,5,116,95
O=C(CCc1nc2ccccc2s1)Nc1cccnc1,·,-7,i,1,-45,88,101
CCN1C(=O)CC(N2CCC(C(=O)OC)CC2)C1=O (stereo unspecified),-0.4,19,i,0.92,33,42,112
O=C(CN1CCOc2ccccc21)NCc1ccc(Cl)cc1,-1.4,-1,·,·,15,60,111
Cc1cc(C)cc(C(=O)NCC(=O)OCC(=O)N(C)c2ccccc2)c1,·,-1,i,0.96,·,·,105
c1csc(-c2cnc3ccccc3n2)c1,-1.7,-2,i,0.89,-94,112,115
Cc1cccc(N2CCN(C(=S)c3ccc([N+](=O)[O-])cc3)CC2)c1,-1.5,-2,i,0.96,3,92,50
C#CCNC(=O)C1=C[C@@H](c2ccccc2)[C@H](CCCO)[C@@H](OCC)O1,·,7,i,0.88,·,·,93
